Screening data as filed in PubChem BioAssay.
GIV-Gai inh: GIV-Galpha-i interaction inhibition | actives 0.42% (n = 210,000) | P08753 | percent of control (FP), % (test concentration not listed) | Galpha-i3/FITC-GIV peptide fluorescence polarization, 90 min; active compounds read low; scaled: aluminum fluoride 0%, vehicle 100%;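 active = replicate mean at 85% of control or lower, very high polarization wells dropped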;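 note: lower values mean more displacement of the GIV peptide from Galpha-i3; wells of about 15 µL received 100 nL stock; the first replicate is given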
Target sequence (P08753 whole entry, looked up): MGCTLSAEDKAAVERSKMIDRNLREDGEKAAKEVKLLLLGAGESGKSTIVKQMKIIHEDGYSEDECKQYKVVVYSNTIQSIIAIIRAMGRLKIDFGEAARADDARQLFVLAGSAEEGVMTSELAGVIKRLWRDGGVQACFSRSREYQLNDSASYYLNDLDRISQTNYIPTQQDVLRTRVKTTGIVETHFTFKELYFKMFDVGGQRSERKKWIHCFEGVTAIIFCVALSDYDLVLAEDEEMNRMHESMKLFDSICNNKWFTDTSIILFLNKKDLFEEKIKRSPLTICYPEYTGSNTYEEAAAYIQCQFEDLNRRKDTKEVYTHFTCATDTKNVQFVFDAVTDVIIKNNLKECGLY
HCMV NEC inh: disrupts HCMV UL50-UL53 complex binding. HTRF UL50-UL53 interaction, normalized percent inhibition. inhibition, % (no concentration beside the values). actives 0.15% (n = 190,000);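 active = both replicates at 50% or more, plus weaker picks with an unusually low signal ratio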;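 note: stock transfer was 100 nL into about 20 µL; 0% = negative control wells and 100% = wells with untagged competitor protein; inactives centre near -12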
Sa growth 42C: blocks Staphylococcus aureus growth; S. aureus RN4220 growth, OD600, 20 h, 42 °C; active compounds read low; relative growth, % (no concentration beside the values); actives 0.53% (n = 170,000); AID 720641;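 active = growth at 42 °C up to 50% and 20 or more points under that at 30 °C, or under 10% at both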;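 note: 300 nL library stock went into each well; scaled to the means of positive and negative controls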
Sa growth 42C second temp: also measured in Sa growth 42C; calls as there; relative growth, %; measured here: growth at 30 °C;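 optical density after 20 h as mean of two plates; 100% = untreated growth and lower means inhibition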
An asterisk follows results filed as active; nt = no result given.

Molecule	GIV-Gai inh	HCMV NEC inh	Sa growth 42C	Sa growth 42C second temp
CC(=O)NCCNc1nc(-c2cccnc2)nc2ccccc12	nt	-26	96	75
COc1ccc(N2CCN(CCCNC(=O)c3cc(Nc4ccccc4OC)nc4ccccc34)CC2)cc1	102	nt	97	89
Cc1cnc(C(=O)OCc2cc(=O)n3ccsc3n2)cn1	nt	-12	87	101
Cc1ccc2oc(=O)c3cnn(CC(=O)Nc4cccc(C(F)(F)F)c4)c3c2c1	104	-39	97	82
FC(F)(F)C1=Nc2ccccc2N(c2ccc(Cl)c(Cl)c2)C1	nt	-9	90	94
O=C(NCc1ccc2c(c1)CCN2C(=O)c1ccccc1)c1ccccc1	99	nt	117	85
COc1ccc(NC(=O)Cn2nc3c4ccccc4ncn3c2=O)cc1Cl	102	-16	nt	nt
O=c1oc2ccccc2c2c1ncn2-c1ccccc1	101	-2	88	66
CS(=O)(=O)Nc1ccc(-c2n[nH]c(=S)n2-c2ccccc2)cc1	107	-9	101	99
CCCC(C)NC1=NCCCCC1 (configuration not stated)	nt	-12	103	89
CCOc1ccc(OCC(=O)OC(C)C(=O)Nc2ncc(Cl)cc2Cl)cc1 (configuration not stated)	nt	-3	114	93
Cc1ccc2nc(-c3ccc(NC(=O)c4snnc4C)cc3)sc2c1	103	14	nt	nt
CCC(C(=O)Nc1ccc(N2CCOCC2)cc1)c1ccccc1 (configuration not stated)	nt	12	120	99
COc1cccc(NC(=O)CCN2CC(C)CC(C)C2)c1 (configuration not stated)	92	-1	89	100
c1ccc2sc(N3CN(CCN4CCOCC4)CN(c4nc5ccccc5s4)C3)nc2c1	109	-11	90	101
O=C(OCN1C(=O)c2ccccc2C1=O)c1ccccc1O	nt	-31	75	90
COc1ccc(OCCSc2ncn[nH]2)cc1	nt	-4	97	98
CCn1cnc2sc(C)c(C)c2c1=O	108	9	88	104
Cc1ccc(NC(=O)c2c(C)oc3ccc(O)c(CN4CCCCCC4)c23)cc1	106	13	107	90
Cc1ccc(CN2C(=O)C3(SCC(=O)N3c3ccc(C)c(C)c3)c3ccccc32)cc1 (configuration not stated)	101	nt	101	90
Cc1nc(N2CCOCC2)c2c(C)c(C(=O)N3CC(C)CC(C)C3)sc2n1 (configuration not stated)	103	-25	nt	nt
O=C(COc1ccc(Cl)cc1)Nc1cccc(N2CCCS2(=O)=O)c1	100	0	nt	nt
O=C(CCN1N=C(c2ccccc2)CCC1=O)N1CCC2(CC1)OCCO2	101	nt	101	83
COC(=O)C1CC(O)CN1S(=O)(=O)c1ccc2ccccc2c1 (configuration not stated)	nt	-17	97	90
CCOC(=O)C1=C(O)CN(C)C1=O	nt	0	92	86
Cn1c(=O)c2c(nc(SCc3nc(N)nc(N4CCCCC4)n3)n2C)n(C)c1=O	103	5	94	86
COc1ccc2c(c1)OC1=C(C(=O)CCC1)C2C1=C(O)CCCC1=O (configuration not stated)	98	-24	104	76
COc1cccc(N2C(=O)CC(Sc3ccccc3N)C2=O)c1 (configuration not stated)	111	-9	88	91
CCn1c(=O)c2sccc2n2c(CCC(=O)NCCC3=CCCCC3)nnc12	98	-15	nt	nt
COc1cc(-c2nnc(SCC(=O)NC(C)C)o2)cc(OC)c1OC	101	16	107	89
CC1CSc2ccc(S(=O)(=O)N3CCCC3)cc2N(CC(=O)N(C)C2CCCCC2)C1=O (configuration not stated)	102	14	nt	nt
Cc1csc(=Nc2ccccc2)n1-c1ccccc1	110	-7	126	83
CCN(CC)S(=O)(=O)c1ccc(C(=O)N(Cc2ccccc2)C(C)C)cc1	nt	-13	120	94
CCOc1ccc(N2C(=O)CC(N(CCc3ccccc3)C(C)=O)C2=O)cc1 (configuration not stated)	102	1	75	83
O=C(CCOc1ccccc1)Nc1nc2cc3c(cc2s1)OCO3	103	-6	100	98
CN(c1ccc(-c2csc(NC(=O)CCCc3nc4ccccc4c(=O)[nH]3)n2)cc1)S(C)(=O)=O	nt	-10	107	83
CC(C)OC(=O)CCc1nc2ccccc2[nH]c1=O	nt	-18	84	97
CCOc1ccc(-c2nc3ccc(Br)cc3c(C(=O)O)c2C)cc1	nt	-30	94	89
Cc1c(C(=O)N(Cc2ccccc2)Cc2cccnc2)cnn1-c1ccc(Cl)cc1	104	-5	105	89
Cc1ccc(CNC(=O)C(C(C)C)N2Cc3ccccc3C2=O)cc1 (configuration not stated)	106	nt	116	104
Cn1c2ccccc2c2ccccc21	99	-24	96	95
CCC(Cn1nnc2ccccc2c1=O)NC(=O)Nc1ccccc1OC (configuration not stated)	99	-10	99	88
Cc1nc2cc(-c3ccccc3)nn2c(C)c1CCC(=O)NCCN1CCC(Cc2ccccc2)CC1	100	-2	nt	nt
N#Cc1c(-c2ccc(Cl)cc2)c(C#N)c2sc3ccccc3n2c1=O	nt	-31	108	96
CCc1nc2ccccc2nc1N1CCN(C(=O)c2cccs2)CC1	92	-14	94	75
COc1ccc(C)cc1NC(=O)COCc1cc(-c2cccs2)on1	101	nt	124	87
Cc1cc2oc(=O)cc(-c3cc4ccccc4o3)c2cc1O	102	-49	92	74
Cc1oc2ncn(C)c(=O)c2c1C(=O)Nc1ccccn1	102	-34	102	86
CCOc1ccccc1COC(=O)c1cccc(-n2cnnn2)c1	nt	0	94	99
Cc1cc(C)nc(NS(=O)(=O)c2ccc(NC(=O)/C(C#N)=C/c3ccc(C(C)C)cc3)cc2)n1	105	-17	nt	nt
COc1ccccc1C(=O)COC(=O)c1ccc(CN2CCCC2=O)cc1	nt	-18	92	82
ClCCOc1ccc(Br)cc1OCCCl	nt	-16	72	85
Cc1ccc2[nH]c(=O)c(CN(CCCO)C(=O)NC3CCCCC3)cc2c1	104	-32	96	84
Cc1ccc(C)c(NC(=O)CSc2nc(=O)n(CCN3CCOCC3)c3c2CCC3)c1	95	nt	110	87
CCOc1ccc(NC(=O)c2c(C)oc3ccc(OC)cc23)cc1	102	1	nt	nt
O=C(O)COc1nc(-c2ccccc2)sc1C(=O)O	121	-51	100	84
CCOc1ccc(C2CC(=O)NC(SCC(=O)Nc3ccc(Br)cc3)=C2C#N)cc1 (configuration not stated)	100	-26	nt	nt
CN1/C(=C\C=C(C#N)C#N)C(C)(C)c2ccccc21	nt	14	99	104
CCCNC(=O)CSc1nnc(-c2cccs2)o1	nt	-22	71	83
CCNC(=O)c1c(-c2c(Cl)cccc2Cl)noc1C	97	-26	88	82

More entries
Molecule	GIV-Gai inh	HCMV NEC inh	Sa growth 42C	Sa growth 42C second temp
CC(=O)c1ccc(Oc2ncnc3c2oc2ccccc23)cc1	111	nt	137	101
CC(=O)Oc1ccc(-c2ccc(C(=O)NCCc3ccccn3)cc2)cc1	nt	-25	115	77
COC=Nc1c(C(=O)OC)n(Cc2ccccc2)c2ccccc12	nt	-16	95	95
c1ccc(CCN2CCn3c(nc4ccccc43)C2)cc1	94	-15	nt	nt
CC(=O)N1CCCc2cc(S(=O)(=O)N3CCC(C(=O)NC4CCC(C)CC4)CC3)ccc21 (configuration not stated)	102	nt	119	82
Cc1cccc(Cn2c(=O)n(Cc3ccco3)c(=O)c3sc4ccccc4c32)c1	100	14	92	83
COCc1nc2ccccc2n1CC(C)C	103	nt	81	86
CC(C)c1ccc(C2(C#N)C(=O)Nc3ccccc32)cc1 (configuration not stated)	nt	6	107	80
CC(=O)N1N=C(c2c(-c3ccccc3)c3cc(Br)ccc3[nH]c2=O)CC1c1ccccc1F (configuration not stated)	105	11	nt	nt
O=C1C2CC=CCC2C(=O)N1CC(=O)N1N=C2/C(=C/c3cccs3)CCCC2C1c1cccs1 (configuration not stated)	nt	-10	109	102
CCN1C(=O)CSc2ccc(C(=O)NCCc3ccc(OC)c(OC)c3)cc21	93	nt	112	84
NC(=O)/C(=C\c1ccccc1O)C(N)=S	nt	-77	97	87
CN(C(=O)CSc1nc2ccccc2n1CC(=O)N(C)C1CCCCC1)c1ccccc1	102	nt	102	89
CCCc1oc2cc(O)ccc2c(=O)c1Oc1ccccc1	nt	-15	86	87
CCSCCOC(=O)C1=C(C)N(C)C(=O)NC1c1ccc(OCc2ccccc2)cc1 (configuration not stated)	107	6	nt	nt
O=C(NCc1ccc(Cl)cc1)c1ccc2c(c1)N(Cc1ccccc1F)C(=O)c1ccccc1S2=O (configuration not stated)	109	2	105	101
CCCCN(CC)C(=O)CCc1nc(-c2nn(-c3ccccc3)c(=O)n(C)c2=O)no1	110	-79	nt	nt
Cc1nc2nc(CN)nn2c(C)c1CCC(=O)NCc1ccccc1Cl	102	-15	nt	nt
O=C(O)c1ccc(N2CCOCC2)cc1	104	-46	90	93
Nc1nnc(SCC(=O)Nc2ccccc2C(F)(F)F)s1	99	14	103	99

Sorted by molecular weight (highest first): some entries from above.
Molecule	GIV-Gai inh	HCMV NEC inh	Sa growth 42C	Sa growth 42C second temp
c1ccc2sc(N3CN(CCN4CCOCC4)CN(c4nc5ccccc5s4)C3)nc2c1	109	-11	90	101
Cn1c(=O)c2c(nc(SCc3nc(N)nc(N4CCCCC4)n3)n2C)n(C)c1=O	103	5	94	86
CCOc1ccc(OCC(=O)OC(C)C(=O)Nc2ncc(Cl)cc2Cl)cc1 (configuration not stated)	nt	-3	114	93
CCN1C(=O)CSc2ccc(C(=O)NCCc3ccc(OC)c(OC)c3)cc21	93	nt	112	84
COc1cc(-c2nnc(SCC(=O)NC(C)C)o2)cc(OC)c1OC	101	16	107	89
CC(=O)Oc1ccc(-c2ccc(C(=O)NCCc3ccccn3)cc2)cc1	nt	-25	115	77
COc1cccc(N2C(=O)CC(Sc3ccccc3N)C2=O)c1 (configuration not stated)	111	-9	88	91
CCOc1ccccc1COC(=O)c1cccc(-n2cnnn2)c1	nt	0	94	99
CC(=O)c1ccc(Oc2ncnc3c2oc2ccccc23)cc1	111	nt	137	101
COc1cccc(NC(=O)CCN2CC(C)CC(C)C2)c1 (configuration not stated)	92	-1	89	100
Cc1oc2ncn(C)c(=O)c2c1C(=O)Nc1ccccn1	102	-34	102	86
CC(C)c1ccc(C2(C#N)C(=O)Nc3ccccc32)cc1 (configuration not stated)	nt	6	107	80
Cc1csc(=Nc2ccccc2)n1-c1ccccc1	110	-7	126	83
O=c1oc2ccccc2c2c1ncn2-c1ccccc1	101	-2	88	66
CC(C)OC(=O)CCc1nc2ccccc2[nH]c1=O	nt	-18	84	97
COCc1nc2ccccc2n1CC(C)C	103	nt	81	86
O=C(O)c1ccc(N2CCOCC2)cc1	104	-46	90	93
CCCC(C)NC1=NCCCCC1 (configuration not stated)	nt	-12	103	89

The list continues.
Molecule	GIV-Gai inh	HCMV NEC inh	Sa growth 42C	Sa growth 42C second temp
O=C(O)C(Cc1ccccc1)Nc1ncnc2sc3c(c12)CCC3 (configuration not stated)	106	1	100	93
Cc1ccc2oc3oc(=O)cc(C)c3c2c1	100	-16	95	68
COc1ccc(NC(=O)C2CCCN(S(=O)(=O)c3cc(-c4noc(C(C)C)n4)sc3C)C2)cc1 (configuration not stated)	103	-9	nt	nt
CCn1cc(C(=O)N(Cc2nc3ccccc3c(=O)[nH]2)C(C)C)c(=O)c2ccc(C)nc21	nt	-2	94	95
CCN(Cc1ccncc1)C(=O)c1cc2c(C)nn(-c3ccc(Cl)cc3)c2s1	nt	-40	112	88
COc1cccc(NC(=O)c2oc3ccc(S(=O)(=O)N4CCOCC4)cc3c2C)c1	106	nt	117	89
COC(=O)c1cc(OC)c(OC)cc1NCC(=O)N1CCOCC1	nt	20	87	93
Cc1cc2nc(COC(=O)CNC(=O)c3ccccc3Cl)cc(=O)n2o1	101	-34	nt	nt
NC(=O)c1nsc(C(=O)N(CCc2ccccc2)C(C(=O)NC2CCCC2)c2ccco2)c1N (configuration not stated)	103	2	118	107
N#CC(C#N)=Cc1ccc(-c2ccc(SC(F)F)cc2)o1	nt	3	113	98
OC(CN1CCN(C2c3ccccc3-c3ccccc32)CC1)c1ccccc1 (configuration not stated)	100	-16	80	89
CCN1C(=O)CC(N2CCC(CCc3ccc(OC)cc3)CC2)C1=O (configuration not stated)	102	-15	98	96
COC(=O)c1cc(C(=O)Nc2ccc(O)cc2)c(=O)[nH]c1C	106	-7	nt	nt
CCOC(=O)c1c(C)n(-c2ccccc2)c2ccc(OC(=O)COc3ccc(Cl)cc3)cc12	99	-10	101	90
Cc1cc(N=Cc2cc(Cl)cc(Cl)c2O)no1	106	7	96	92
CCC(C)NC(=O)c1nn(-c2ccc(OC)cc2)c(=O)n(C)c1=O (configuration not stated)	102	-115	nt	nt
CN(Cc1ccccc1)C(=O)/C=C/C(=O)O	nt	-2	75	91
O=S(=O)(c1ccccc1)N1CCCC(C(F)(F)F)C1 (configuration not stated)	108	14	102	104
